AF4-AF9 inh: inhibitors of AF4 peptide binding to AF9, primary screen, biochemical, AlphaScreen, biotin-AF4 peptide, FLAG-AF9, single point; inhibition, % at 10 µM; AID 651704, 2012; Protein AF-9 (Homo sapiens), P42568; hit rate 0.47% among 350,000;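 active = every replicate reaching a set inhibition limit, whatever the replicate mean, cut at about 25% in these data; inconclusive = mean inhibition reaches that limit but some replicates miss it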;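 also: 0% = plate neutral control median and 100% = total signal loss; the record names both 10 and 1 µM as test concentration; the first replicate is given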
Target sequence (P42568 whole entry, looked up): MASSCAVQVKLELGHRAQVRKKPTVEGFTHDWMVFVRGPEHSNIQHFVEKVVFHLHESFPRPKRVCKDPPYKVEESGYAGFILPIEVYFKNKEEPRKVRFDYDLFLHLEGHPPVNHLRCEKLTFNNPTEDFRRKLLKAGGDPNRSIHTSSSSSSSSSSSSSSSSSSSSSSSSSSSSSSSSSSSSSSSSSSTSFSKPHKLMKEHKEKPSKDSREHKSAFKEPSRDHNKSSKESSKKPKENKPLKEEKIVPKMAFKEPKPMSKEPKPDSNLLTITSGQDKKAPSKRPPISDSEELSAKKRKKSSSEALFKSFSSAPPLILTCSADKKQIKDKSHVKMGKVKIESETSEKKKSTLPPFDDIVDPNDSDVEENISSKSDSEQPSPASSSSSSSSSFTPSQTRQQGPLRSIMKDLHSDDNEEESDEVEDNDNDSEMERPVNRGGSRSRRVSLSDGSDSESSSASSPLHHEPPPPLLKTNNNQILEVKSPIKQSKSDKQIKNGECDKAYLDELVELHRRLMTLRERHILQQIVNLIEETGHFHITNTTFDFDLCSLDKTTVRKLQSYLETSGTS
T cruzi repl: inhibitors of intracellular T. cruzi growth, primary screen, luminescence, NIH3T3 host cells | T. cruzi beta-gal in NIH3T3, 90 h | inhibition, % (concentration not given with the values) | hit rate 1.4% among 300,000 | AID 1885, 2009;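 active = mean inhibition across valid replicates above about 55%, limit read from the data; inconclusive = mean below that limit but half or more replicates reach it; inactive = mean below it, under half of replicates reach it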;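 also: signal also drops with host cell toxicity which is not excluded here; 0% = plate median of DMSO wells and 100% = zero luminescence signal; higher percent means less beta-gal luminescence so fewer parasites; stock transfer was 50 nL into about 50 µL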
RanGTP-Imp inh: inhibitors of RanGTP-importin-beta interaction, primary screen, biochemical, FRET, CFP-Ran, YFP-importin-beta, homogeneous. inhibition, % (concentration not given with the values). cell-free CFP-Ran/YFP-importin-beta FRET ratio. Ran GTPase (GTP-bound) - importin-beta complex. hit rate 1.1% among 300,000. AID 2216, 2009;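 active = most replicates above 15%; inconclusive = exactly half above 15%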;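 also: 0% = DMSO wells and 100% = Ran loaded with GDP instead of GTP; wells of about 40 µL received 100 nL stock; the first replicate is given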
LANA-H2A inh: blockers of LANA interaction with H2A/H2B – biochemical, FP readout, HTS, primary screen; Protein LANA1 (Human herpesvirus 8 type P (isolate GK18)), Q9QR71; cell-free LANA-H2A/H2B peptide, fluorescence polarization; inhibition, % (no concentration beside the values); hit rate 0.6% among 320,000; in the data active = inhibition mostly above about 10%, no sharp cut-off; inactive = mostly below about 6.7%;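 also: stock transfer was 7.5 nL into about 10 µL; 0% = median of vehicle wells and 100% = median of positive control wells; one replicate is shown; the record names a cut of 25% in any replicate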
A1 inh: caspase 3/7 activation in MEF A1-2A-BIM cells, primary screen, A1 inhibitor project, cell-based, luminescence, HTS. Caspase-Glo 3/7 luminescence, 3 h; percent of clofoctol response, vehicle zero. caspase activation, % (test concentration not listed). hit rate 0.066% among 330,000;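 active = over half of replicate activation scores above 10%, or exactly half above 10 with the replicate mean above 10; inconclusive = replicate mean below 10 yet half the replicates above 10; inactive = over half of replicates below 10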;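 also: wells of about 30 µL received 50 nL stock; many hits fall short of the cut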
Calb FLC: C. albicans growth inhibition with fluconazole, primary screen, CaCi-2 strain, Alamar Blue fluorescence. hit rate 0.57% among 300,000. growth inhibition, % (test concentration not listed). C. albicans CaCi-2 (fluconazole-resistant clinical isolate) + fluconazole, 48 h;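 active = most replicates above 75%; inconclusive = exactly half above 75%; inactive = most below 75%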;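 also: all wells also contain fluconazole at 8 µg/ml as a sub-toxic cotreatment; 0% = median of DMSO wells and 100% = median of geldanamycin control wells; wells of about 8 µL received 7.5 nL stock; the first replicate is given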
Beta cell apopt: inhibitors of cytokine-induced beta cell apoptosis, primary screen, luminescence | protection from apoptosis, % (no concentration beside the values) | hit rate 0.8% among 300,000 | INS-1E cytokine-induced death, ATP luminescence, 48 h; percent of positive-control rescue, neutral wells zero;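 active = all replicates at 75% or more, or half of them and the mean; inconclusive = half reach 75% but not the mean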;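 also: 0% = cytokine-treated negative control wells and 100% = positive control rescue; higher means more ATP so stronger rescue from cytokine killing; wells of about 40 µL received 100 nL stock; the first replicate is given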
Vif TR-FRET: inhibitors of Vif binding to APOBEC3G peptide, primary screen, biochemical, TR-FRET, GST-Vif 1-94, biotin-A3G peptide, dose response retest (AID 1117319); Virion infectivity factor (Human immunodeficiency virus type 1 group M subtype B (isolate …; TR-FRET GST-Vif / biotin-A3G peptide binding; higher % means a stronger effect; test concentration not given here; strong numbers were not always called active; inhibition, %, or IC50 in µM where a hit was titrated; hit rate 0.57% among 260,000;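 active = above the screen mean plus three standard deviations and confirmed in dose response; inconclusive = results disagree or hit not tested in dose response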;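 also: Vif residues 1-94 fused to GST binding biotinylated APOBEC3G peptide 110-148; 0% = full assay without inhibitor and 100% = GST in place of GST-Vif; retest series ran down from 100 µM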
* hit, by the source's call; ? = inconclusive; . = no result given; & = joins results of further samples.

mol,AF4-AF9 inh,T cruzi repl,RanGTP-Imp inh,LANA-H2A inh,A1 inh,Calb FLC,Beta cell apopt,Vif TR-FRET
O=C(N/N=C1/CCS(=O)(=O)c2ccc(F)cc21)c1ccccn1,-2.5,1,1.4,1.2,-0.4,4,-1,-11%
COc1ccc(NC(=O)COC(=O)CNC(=O)c2cccs2)cc1Cl,-1.5,.,.,6.3,0.2,.,1,3%
CCNC(=O)COC(=O)c1ccc(NS(=O)(=O)c2ccc3c(c2)OCCO3)cc1,-27,-10,1.6,0.7,0.3,-4,-6,.
Cc1noc(C)c1S(=O)(=O)Nc1c(C)n(C)n(-c2ccccc2)c1=O,.,-7,0.9,-2.4,1.0,-6,-5,-2%
CN1C(C(=O)NCc2ccco2)=CC(c2ccc(F)cc2)=NS1(=O)=O,0.3,-9,1.7,3.4,-0.5,-11,0,.
Cc1cc(-c2nn3c(C)nnc3s2)ccc1NC(=O)C(C)(C)C,.,-12,3.4,-0.6,-6.6,-2,-13,-5%
CC1Oc2ccccc2C=C1/C=N/Nc1ccc(C(=O)O)cc1 (stereo not given),14,5,6.8,-2.2,-7.5,-6,-14,10%
COc1ccc(C(=O)OCC(=O)NCC2CCCO2)c(F)c1 (stereo not given),1.3,.,.,8.0,0.8,.,0,.
O=C(CCc1ccccc1)NC(=S)Nc1cccc(C(=O)O)c1,-0.7,-1,-3.8,-6.6,0.2,2,.,14%
COc1cc(C)c(NC(=S)NCCCN2CCOCC2)cc1OC,-4.3,-4,2.6,2.1,0.8,32,0,-3%
Cc1c(S(=O)(=O)N2CCCCC2)c(=O)n(C)c(=O)n1C,2.0,-2,-2.1,2.3,1.0,1,.,-2%
CC1CN(C(=O)c2ccc(CNS(=O)(=O)c3cccc(Cl)c3)cc2)CC(C)O1 (stereo not given),-1.4,-6,3.5,.,.,-1,.,.
Cc1ccc(-n2cnc(N)c2C(=O)c2cccc([N+](=O)[O-])c2)cc1,.,1,11,-4.2,-0.1,29,-8,-1%
O=C(c1cc(-c2cccc(O)c2)on1)N1CCOCC1,-5.6,-1,-0.2,2.4,-6.3,-2,-6,1%
CCSc1ncc(Cl)c(C(=O)N(Cc2ccc(N(C)C)cc2)C2CCS(=O)(=O)C2)n1 (stereo not given),.,-4,-4.5,.,.,0,.,8%
O=C(COc1ccccc1-c1ccccc1)NN=C1CCCC1,0.7,-18,-0.5,6.1,0.6,10,-1,-6%
Cc1c(CCC(=O)N2CCC[C@H]2C(=O)O)c(=O)oc2c(C)c3oc4c(c3cc12)CCCC4,7.1,22,0.0,2.3,-0.3,-10,-4,.
Cc1ccc(C(CC(=O)O)Nc2nc(N3CCCCC3)nc(N3CCCCC3)n2)cc1 (stereo not given),.,-11,3.1,-15,0.3,-10,3,-8%&-2%
O=[N+]([O-])c1ccccc1CN1CCN(S(=O)(=O)c2ccccc2)CC1,2.4,20,0.3,0.9,0.4,6,14,.
CCOc1ccc(C(=O)CSc2nnc3ccccn23)cc1,.,1,5.4,-0.6,0.7,-1,2,10%
Cc1nc(C(F)(F)F)ccc1C(=O)NN1CCOCC1,.,-8,8.3,3.7,0.3,-7,-6,2%
CNC(=S)N1N=C(c2ccc(Br)cc2)CC1c1ccc(Br)cc1 (stereo not given),.,78*,2.5,-3.4,0.0,-12,.,-23%
CCN(CC)C(=S)SC1CCCCN(C(=O)c2ccccc2)C1=O (stereo not given),11,-6,-3.4,-0.9,0.2,0,-4,.
CCN(CC)S(=O)(=O)c1ccc(-c2nnc(SCC(C)=O)o2)cc1,.,-19,0.1,4.4,-0.8,-38,-3,5%
COc1ccc(NCC(=O)n2c(C)c(C)c3ccccc32)cc1,2.5,-12,3.0,-4.0,0.4,6,7,5%
CCCn1c(N)c(N2CCCCC2)c(=O)n(CC(=O)Nc2ccccc2C(F)(F)F)c1=O,-2.9,.,.,3.4,0.1,.,0,3%
COc1cc(/C=C(/C#N)C(=O)NC(C)c2ccccc2)cc(OC)c1O (stereo not given),4.5,4,2.7,-1.2,-0.9,42,.,.
CCC(C)NC(=O)COC(=O)c1ccccc1OCC(=O)Nc1ccc(Br)cc1 (stereo not given),-3.2,-1,0.9,2.1,0.7,-31,6,7%
N/C(=N\NS(=O)(=O)c1cc(C(F)(F)F)cc(C(F)(F)F)c1)c1ccccn1,-3.7,-14,9.4,-4.5,-0.9,23,-6,-6%
COc1ccc(N(C(=O)CNC(=O)c2cccs2)C(C(=O)NCC2CCCO2)c2ccccc2)c(OC)c1 (stereo not given),2.2,-10,6.9,-2.7,0.1,-2,0,.
O=c1cc(C(F)(F)F)[nH]c2ccccc12,-2.6,-9,-2.9,-0.3,0.5,-3,3,5%
COc1ccc(-c2nc(CS(=O)CC(=O)NCCN3CCCCC3C)c(C)o2)cc1OC (stereo not given),2.2,0,0.7,8.3,-0.4,-5,-2,.
COCC(=O)Nc1nnc(C2CCCCC2)s1,.,2,-0.5,1.2,1.9,-22,0,1%
Cc1ccc(N=Nc2c(C)[nH][nH]c2=O)c(C)c1,.,23,-6.0,-1.1,-0.7,-2,-4,9%
CCO[C@H]1OC(C(N)=O)=C[C@@H](c2csc3ccccc23)[C@@H]1CCCO,-0.6&-3.7,4,-0.3,0.6,0.9,8,-1,9%
CNc1nc(Cl)c(SC)c(NC2CCCCC2)n1,1.1,29,-0.5,-0.5,0.1,0,8,9%

A second format for four compounds above:
O=c1cc(C(F)(F)F)[nH]c2ccccc12
  AF4-AF9 inh = -2.6
  T cruzi repl = -9
  RanGTP-Imp inh = -2.9
  LANA-H2A inh = -0.3
  A1 inh = 0.5
  Calb FLC = -3
  Beta cell apopt = 3
  Vif TR-FRET = 5%
COc1ccc(-c2nc(CS(=O)CC(=O)NCCN3CCCCC3C)c(C)o2)cc1OC (stereo not given)
  AF4-AF9 inh = 2.2
  T cruzi repl = 0
  RanGTP-Imp inh = 0.7
  LANA-H2A inh = 8.3
  A1 inh = -0.4
  Calb FLC = -5
  Beta cell apopt = -2
  Vif TR-FRET = .
COCC(=O)Nc1nnc(C2CCCCC2)s1
  AF4-AF9 inh = .
  T cruzi repl = 2
  RanGTP-Imp inh = -0.5
  LANA-H2A inh = 1.2
  A1 inh = 1.9
  Calb FLC = -22
  Beta cell apopt = 0
  Vif TR-FRET = 1%
Cc1ccc(N=Nc2c(C)[nH][nH]c2=O)c(C)c1
  AF4-AF9 inh = .
  T cruzi repl = 23
  RanGTP-Imp inh = -6.0
  LANA-H2A inh = -1.1
  A1 inh = -0.7
  Calb FLC = -2
  Beta cell apopt = -4
  Vif TR-FRET = 9%

Later entries:
Order of results – AF4-AF9 inh, T cruzi repl, RanGTP-Imp inh, LANA-H2A inh, A1 inh, Calb FLC, Beta cell apopt, Vif TR-FRET
Cc1ccc(C(=O)OCC(=O)Nc2cccc(Cl)c2C)c(O)c1
    -5.4, 6, 1.8, -2.8, 0.0, 0, -8, .
CN(C)S(=O)(=O)c1cc([N+](=O)[O-])ccc1N1CCCCCC1
    ., 9, -8.4, -4.3, 0.3, 3, -2, -8%
CC(=O)Nc1sc2c(c1C(N)=O)CCN(Cc1ccccc1)C2
    5.6, 17, 162*, 4.6, -0.1, ?, -3, .
CC(C)(C)c1ccc(C(=O)NC(=S)Nc2sc3c(c2C#N)CCC3)cc1
    ., -13, 8.9, 1.5, -0.6, 5, -8, .
CCOC(=O)c1c(-c2ccc(-c3ccccc3)cc2)csc1NC(=O)CCC(=O)O
    -0.9, -9, -2.8, 2.5, 0.9, -1, 9, 3%
COc1ccc(NS(=O)(=O)c2ccc(NC(=S)NC(=O)/C=C/c3ccc(C)cc3)cc2)nn1
    ., 7, 0.5, -2.5, 0.0, 6, 0, -4%
Cc1c(NC(=O)CCCOc2ccccc2)cccc1[N+](=O)[O-]
    ., -3, 2.6, 0.2, 0.4, -3, -7, ?
CSc1ccccc1OCc1cc(C(=O)N2CCN3CCCC3C2)no1 (stereo not given)
    2.1, 1, -1.8, 0.5, 0.7, 7, 1, .
Cc1nc(N2CCOCC2)c2oc3ccccc3c2n1
    ., -7, -0.9, -3.1, 0.0, 19, -1, 0%
O=C(NCCCc1nc2ccccc2[nH]1)c1cccs1
    -0.5, -5, 0.4, 0.9, 0.1, 2, -4, -5%
Cc1ccc(NC(=O)c2ccc(Cl)cc2[N+](=O)[O-])nc1
    -0.6, -57, ?, -4.1, 1.2, -7, 11, .
O=c1cc(CSc2nnnn2-c2ccccc2)nc(Nc2ccc(F)cc2)[nH]1
    ., -1, 4.1, -1.6, 0.9, -4, 1, 31%
CN1CCN(C(=O)C2C3C=CC(C3)C2C(=O)O)CC1 (stereo not given)
    ., -9, 1.5, -3.5, -0.1, -1, -4, -2%
O=C1/C(=N\S(=O)(=O)c2cccs2)C([n+]2ccccc2)=C([O-])c2ccccc21
    -3.4, 2, 0.8, 1.4, 0.8, 1, 97*, 2%
Cc1ccc(-n2nc3c(=O)n(CC(=O)NCc4ccccc4)nc(C)c3c2C)cc1
    -3.2, -6, 2.4, -4.5, 0.2, 8, ., .
COCCN(Cc1ccccc1)P(=O)(O)c1ccccc1OCC(=O)O
    ., -4, 2.3, -1.3, 0.2, 0, 2, 2%
CN(Cc1ccccc1F)C(=O)CN1c2cccc3cccc(c23)S1(=O)=O
    0.2, -2, -3.0, -1.2, 0.3, -7, ., -2%
Cc1cccc(N(C2C=CS(=O)(=O)C2)S(=O)(=O)c2ccccc2)c1 (stereo not given)
    ., 2, -2.5, -1.1, -0.3, 12, 1, 29%
Fc1ccccc1C1CCN(Cc2nc(CC3CC3)no2)C1 (stereo not given)
    2.9, 2, -3.3, -1.5, 0.0, -13, ., 3%
CCc1ccc(O)c(N=Cc2ccccc2O)c1
    3.2, -17, -1.9, 3.7, -0.1, -26, -1, 29%
O=C(c1ccccc1)c1nn(-c2cccc(Cl)c2)c2nc(-c3ccccc3)cc(=O)n12
    ., -4, 1.1, -0.4, -1.1, 2, 17, 0%

High-throughput results: PubChem BioAssay, several laboratories
